Assay outcomes (PubChem)
Menin MLL FP FL: inhibitors of human menin-MLL interaction, wild-type MLL peptide. Fluorescence polarization, fluorescein-MLL peptide displacement from menin. 290,000 tested, under 10 active. FP activity change, % at 61.4 µM; inconclusive = falling polarisation curve, or a change in total fluorescence; inactive = total fluorescence flat and polarisation flat or rising; no compound was filed as active; the % refers to the polarisation; negative = inhibition;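 note: % of control where 0% means no effect; inhibitors lower the polarisation; unlabelled MLL peptide was the positive control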
gsp agonist: agonists of gsp mutant (McCune-Albright syndrome) | gsp mutant cells, cAMP HTRF, 30 min; control for the full effect not named in the record | Potency, µM (titrated, usually from 76.9 µM), for inactives: top-dose activation (cAMP increase), hits mostly activators | 0.13% of 340,000 active; active = well fitted activation curve with a large enough effect; inconclusive = small, poorly fitted or top-dose-only effect, or another doubt; inactive = no such curve, though single readings can be large or run the other way; cell line not stated here;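 note: phosphodiesterase inhibitor Ro 20-1724 added with compounds to block cAMP breakdown; potency is the fitted concentration of half-maximal effect; nearly all actives have a fitted effect of over 60% in size; about a fifth of the inactives were tested at one dose only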
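Cells in DMEM/10% FBS with G418 were pretreated with compounds in DMSO plus […] (300 uM stock) for 30 min at 37C. cAMP was measured by HTRF (cAMP-d2 plus anti-cAMP antibody-K) after 30 min at room temperature.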
Sfp inh: inhibitors of Bacillus subtilis Sfp phosphopantetheinyl transferase | Potency, µM, without a hit: max response, negative = inhibition, actives largely listed as inhibitors | Q9F4F7 | 3.5% of 310,000 active | AID 1490 | Biochemical Sfp PPTase activity, qHTS; active = well fitted inhibition curve with a large enough effect; inconclusive = small, poorly fitted or top-dose-only effect, or another doubt; inactive = no such curve, though single readings can be large or run the other way;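 note: the enzyme is Sfp with the accession as filed and its product quenches rhodamine fluorescence; potency is the fitted concentration of half-maximal effect; 0% = enzyme reaction without inhibitor and -100% = no enzyme wells; top concentration of the series not given in the record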
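Reaction rates are the 30-min fluorescence difference (ex 525, em 598 nm) in wells containing 15 nM Sfp, 5 uM rhodamine-CoA and 12.5 uM BHQ-2-YbbR at pH 7.6 with 10 mM MgCl2.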
ClpP mod: qHTS Assay for Activators of ClpP. 1.9% of 340,000 active. Potency, µM (titrated, usually from 57.5 µM), inactives show at the highest dose activity change, negative = active. purified B. subtilis ClpP, FRET peptide cleavage, 20 min. ATP-dependent Clp protease proteolytic subunit (Bacillus subtilis (strain 168)), P80244; active = well fitted falling curve with a large enough effect; inconclusive = small, poorly fitted or top-dose-only effect; inactive = no such curve, though single readings can be large or run the other way; note: potency is the fitted concentration of half-maximal effect; the source files actives as falling curves though it sought activators and does not explain the sign; nearly all actives have a fitted effect of over 65% in size; many hits overshoot -100%
Target sequence (P80244 whole entry, looked up): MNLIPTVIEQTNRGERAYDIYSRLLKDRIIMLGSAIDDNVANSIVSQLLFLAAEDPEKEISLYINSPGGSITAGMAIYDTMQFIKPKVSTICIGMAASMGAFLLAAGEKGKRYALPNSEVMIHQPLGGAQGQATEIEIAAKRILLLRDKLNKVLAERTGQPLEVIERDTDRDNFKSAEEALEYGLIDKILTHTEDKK
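Buffer: 100 mM Tris/HCl pH8, 100 mM KCl, 0.05% low protease BSA, 2.5% glycerol, 0.01% Tween-20. ClpP 10 microg/mL final; 20 min RT; delta FRET normalized to ADEP and DMSO controls.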
TRPML1 inh: inhibitors of human TRPML1 channel; AID 624415; activity change, negative = inhibition, % (no concentration beside the values); Q9GZU1; 0.02% of 390,000 active; TRPML1-inducible cells, Ca2+ dye fluorescence, FDSS; hits give low values; inhibition of EC80 agonist-evoked calcium signal; in the data active means activity change below about -50%; inconclusive means about -30% to -50%; inactive means above about -30%;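 note: stimulus is agonist 54-4 at its EC80 concentration; % is set by controls: 0 for no effect and ±100 for the full control effect; compound concentration not given in the record; the text of the record puts the active cut at -80%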
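Tet-induced TRPML1-DL cells loaded with Ca8 no-wash calcium dye were read kinetically on FDSS. Compound addition was followed by EC80 agonist 54-4 (4 uM final); inhibition was read over 110 s.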
TRPV1 PAM: human TRPV1 potentiation. TRPV1-expressing cells, Fluo-8 calcium influx, capsaicin EC20 potentiation; host cell line not named in the record; control for the full effect not named in the record. Q8NER1. 0.02% of 320,000 active. AID 540277. potentiation, % at 8.33 µM; active means potentiation above 80%; inconclusive means 30% to 80%; inactive means below 30%; note: 0% is about no effect
Target sequence (Q8NER1 whole entry, looked up): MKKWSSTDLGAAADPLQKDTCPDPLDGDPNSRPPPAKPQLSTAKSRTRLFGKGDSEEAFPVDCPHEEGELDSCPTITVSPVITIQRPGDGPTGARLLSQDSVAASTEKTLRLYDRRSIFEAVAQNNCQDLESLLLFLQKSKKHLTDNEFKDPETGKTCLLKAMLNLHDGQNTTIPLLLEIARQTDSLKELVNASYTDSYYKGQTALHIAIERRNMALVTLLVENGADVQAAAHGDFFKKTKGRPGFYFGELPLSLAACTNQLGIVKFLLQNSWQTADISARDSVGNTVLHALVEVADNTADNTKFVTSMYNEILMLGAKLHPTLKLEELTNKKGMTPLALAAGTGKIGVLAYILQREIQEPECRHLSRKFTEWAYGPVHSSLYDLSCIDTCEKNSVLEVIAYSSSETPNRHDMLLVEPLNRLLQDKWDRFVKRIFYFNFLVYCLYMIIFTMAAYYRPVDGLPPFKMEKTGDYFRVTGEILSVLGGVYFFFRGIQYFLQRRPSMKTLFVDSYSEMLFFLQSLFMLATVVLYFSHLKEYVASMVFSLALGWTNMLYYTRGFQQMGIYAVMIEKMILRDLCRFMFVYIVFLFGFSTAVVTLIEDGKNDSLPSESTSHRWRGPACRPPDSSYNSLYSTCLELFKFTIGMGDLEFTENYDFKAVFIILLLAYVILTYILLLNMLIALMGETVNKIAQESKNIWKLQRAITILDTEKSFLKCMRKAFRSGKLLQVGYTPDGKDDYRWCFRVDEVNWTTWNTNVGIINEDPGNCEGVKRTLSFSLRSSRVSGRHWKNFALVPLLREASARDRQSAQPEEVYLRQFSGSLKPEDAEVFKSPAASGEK
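Cells expressing TRPV1 were dye-loaded with Fluo-8 and read kinetically: 10 s baseline, 3 min after compound (agonist portion), then 2 min after EC20 capsaicin (allosteric enhancer portion). Calcium-bound dye fluorescence at 480/520 nm.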
gsp antagonist: antagonizes gsp, the McCune-Albright syndrome mutation; Potency, µM (doses to about 76.9 µM), inactives show top-dose activity change, negative = inhibition, most hits filed as inhibitors; gsp-mutant cells, cAMP HTRF, 30 min; control for the full effect not named in the record; 0.4% of 340,000 active; AID 624288; active = falling curve of any shape with a large fitted effect; inconclusive = falling curve, mostly with a smaller effect; inactive = flat or rising curve; cell line not stated here;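 note: intracellular cAMP measured with PDE inhibitor Ro 20-1724 present during compound exposure; potency is the fitted concentration of half-maximal effect; % is set by controls: 0 for no effect and ±100 for the full control effect; nearly all actives have a fitted effect of over 65% in size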
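HTRF cAMP read-out (cAMP-d2 plus anti-cAMP antibody-K in lysis buffer, 30 min RT). Before lysis, cells are exposed to compounds with […] for 30 min at 37C in DPBS containing Ca/Mg, BSA and Tween 20.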
Numbers without * were called inactive; u = inconclusive; x = no result given; & = joins results of further samples; [ ] = another dose, or the depositor's remark.

SMILES | Menin MLL FP FL | gsp agonist | Sfp inh | ClpP mod | TRPML1 inh | TRPV1 PAM | gsp antagonist
Cc1ccc(-c2noc(CN(C(=O)c3cccc(Br)c3)C(C)C)n2)cc1 | -2.5 | 18% | 8% | 1.1% | 39 | -11 | u
CCCN(C(=O)c1ccccc1N)c1c(C)n(C)n(-c2ccccc2)c1=O | -0.4 | -12% | 11% | -1.0% | 9 | 3 | 15%
CC(=O)Nc1c(O)nc(SCc2ccc(Cl)cc2)[nH]c1=O | 0.1 | -6% | 12% | -3.3% | 4 | 1 | 12%
CC(OC(=O)c1cccc(-n2cnnn2)c1)C(=O)Nc1ccc(F)c(F)c1F (stereo not given) | x | 0%[15.4 µM] | x | x | 2 | x | 3%
COc1ccc(N2CC(C(=O)Nc3ccc([N+](=O)[O-])cc3Br)CC2=O)cc1 (stereo not given) | 0.3 | -8% | 5% | x | -1 | 0 | -6%
O=C(O)[C@@H](O)[C@@H](O)[C@H](O)[C@H](O)CO | -5.3&1.9 | x | -16%&23% | 2.0% | x | x | x
CC(=O)OC(C#CCN1CCOCC1)c1ccccc1 (stereo not given) | -12 | -60%[inhibitor] | 5% | 0.1% | -7 | -12 | 11%
NS(=O)(=O)c1ccc(NC(=O)CSc2nnc(-c3cnccn3)n2-c2ccccc2)cc1 | -0.5 | 0% | 18% | 46% | -5 | 6 | -1%
O=c1c2c3c(sc2nc(NCCO)n1Cc1ccco1)CCCCC3 | 8.5 | -47%[inhibitor] | 9% | x | 10 | 11 | u
COc1ccc(NC(=O)CSc2nc3c(c(=O)n2-c2ccc(C)cc2)SCC3)c(OC)c1 | 4.0 | 19%[15.4 µM] | -3% | 0.8% | -4 | -7 | -27%
O=C(CN1CCC(NC(=O)C2CC2)CC1)Nc1ccccc1[N+](=O)[O-] | -0.3 | -2%[15.4 µM] | 20% | x | -1 | 2 | 12%
CC(C)N1CCN(Cc2ccc3nsnc3c2)CC1CCO (stereo not given) | -1.0 | 12% | 22% | x | 2 | 2 | 13%
O=C(NCCN1C(=O)S/C(=C\c2ccc(Cl)cc2)C1=O)c1ccc(F)c(S(=O)(=O)N2CCOCC2)c1 | 5.4 | -3% | 10% | 1.7% | -4 | 8 | -11%
CC1CCCC(C)N1CCCNC(=O)Cn1c(=O)c2cccn2c2cccnc21 (stereo not given) | x | u | 11% | 3.9% | 31 | -16 | 10%
Cc1ccccc1-c1cc(-c2ccccc2O)on1 | 1.8 | 16% | -9% | -0.2% | 30 | 3 | -3%
O=C1CCC([N+](=O)[O-])C(c2cc3c(cc2Br)OCO3)N1 (stereo not given) | 0.8 | u | 5% | -1.8% | 2 | 12 | 8%
Cc1ccc(/C=N/N=C2/NC(=O)CS2)o1 | 3.2 | -11% | u | -0.9% | 9 | -9 | 13%
CCN1CCN(CCNC(=O)CSCc2nc(-c3ccc(OC)c(OC)c3)oc2C)CC1 | 3.4 | 22% | 15% | -23% | -13 | 3 | 1%
COc1ccc(CNC(=O)C(C)OC(=O)c2cccn2C)cc1 (stereo not given) | 0.4 | 3% | 14% | 0.5% | -2 | 3 | 10%
COc1ccc(-n2nc(C(=O)NCc3ccco3)c3c4ccccc4n(C)c3c2=O)cc1 | -1.8 | 0% | u | 3.8% | 22 | 11 | u
O=C(Nc1nc2ccc(F)cc2s1)C1CCN(S(=O)(=O)c2cc([N+](=O)[O-])ccc2Cl)CC1 | 1.7 | -6% | u | 0.8% | 10 | -18 | -25%
COc1ccc(NC(=O)c2ccc(OCC3CCCO3)cc2)cc1Cl (stereo not given) | x | 0% | x | 1.3% | 10 | -8 | -8%
Cc1ccc2c(cnn2C(=O)CCCC(=O)NC(C)c2ccccc2)c1 (stereo not given) | -7.2 | -67%[inhibitor] | -21% | -2.2% | -4 | 16 | -19%
Cc1c(CCOC(=O)c2ccccc2)sc[n+]1CC(=O)c1ccc(Br)cc1 | -13 | -2%[15.4 µM] | 1% | x | 6 | -6 | 8%
Cc1nsc(Nc2ccccc2)c1C#N | -0.4 | -17% | 2% | 0.0% | 2 | -10 | 4%
(next part)
SMILES | Menin MLL FP FL | gsp agonist | Sfp inh | ClpP mod | TRPML1 inh | TRPV1 PAM | gsp antagonist
C=CCn1cc(/C=N/Nc2nc3ccccc3[nH]2)c2ccccc21 | -2.5 | 14%[15.4 µM] | 16µM* | -0.8% | 6 | -8 | u
CN1CCc2c(sc3c2c(=O)n(-c2ccccc2)c2n[nH]c(=S)n32)C1 | -1.0 | -2% | 40µM* | -1.2% | 5 | 5 | -13%
CC(/C=C/c1ccco1)=N\NC(=O)CNc1cccc(C)c1 | -0.6 | 6% | 7% | -2.4% | 6 | u | 8%
CCOc1ccc(C(=O)OCC(=O)N2CC(C)OC(C)C2)cc1OCC (stereo not given) | -1.4 | 25% | 3% | x | 5 | u | 13%
CC(C)(C)c1ccc(NC(=O)C2=CC=CN3CCS(=O)(=O)N=C23)cc1 | x | 0% | x | -1.1% | -4 | -1 | -7%
O=C(Cc1ccccc1)N/N=C/c1cc2c(cc1Cl)OCO2 | 0.7 | 10% | 9% | u | -2 | u | -9%
CS(=O)(=O)c1ccc(Cl)c(NC(=O)COC(=O)c2cccc(S(=O)(=O)N3CCCCC3)c2)c1 | 0.4 | u | 10% | 1.0% | -17 | -4 | -23%
COc1ccc(/C=N/NC(=O)c2cc(-c3ccccc3OC(C)C)nc3ccccc23)cc1CN1CCOCC1 | 5.5 | u | 6% | -5.4% | 3 | 26 | -21%
N#C/C(=C\c1ccc(-c2ccc(Br)cc2)o1)C(=O)NCCc1c[nH]c2ccccc12 | 7.1 | -1%[15.4 µM] | 10% | x | 17 | 5 | 1%
Cc1cc(C)n(CC(=O)Nc2ccccc2)n1 | 3.9 | 0% | 16% | -1.0% | -23 | -13 | 3%
Cc1cccc(C)c1NC(=O)Cn1cnc2c(=O)n(C)c(=O)n(C)c21 | 0.4 | u | 23% | 0.6% | 8 | -18 | 0%
COc1ccc(-c2noc(CCCC(=O)Nc3ccc(C(N)=O)cc3)n2)cc1 | 1.1 | 13% | 8% | -0.7% | 18 | -6 | -1%
Cn1c(SCC(=O)c2ccc(F)cc2)nnc1-c1cnccn1 | -0.3 | u | -19% | 2.0% | 19 | -1 | 7%
CN1CCN(CCNC(=O)c2cc3c(=O)n(C)c4ccccc4c3n2C)CC1 | 3.7 | u | 14% | 4.2% | -10 | 13 | 4%
Fc1nc(N2CCCC2)c(F)c(Oc2ccccc2Oc2c(F)c(F)nc(N3CCCC3)c2F)c1F | 0.5 | -8% | 4% | -23% | 2 | -2 | 7%
COc1ccc(CC(=O)N2CCN=C2SC)cc1OC | 2.7 | -11%[15.4 µM] | 16% | -0.3% | -1 | -5 | 11%
CS/C(N)=N/N=C/c1cc(C)ccc1O | 1.4 | u | -13% | -1.0% | x | -2 | 12%
CCOc1ccc(NCc2cccn2-c2nnc(N3CCC(C(=O)NCCCN4CC(C)CC(C)C4)CC3)s2)cc1 (stereo not given) | 1.8 | -5%[15.4 µM] | 10% | x | 16 | -4 | -9%
CC1(C)CN(c2cccc(C#N)c2)C1=O | -3.8 | 13%[15.4 µM] | 14% | x | 36 | -1 | 10%
CC1C(c2ccccc2)N(C)C(c2ccccc2)CC1(O)c1ccc(F)cc1 (stereo not given) | -4.6 | 11%[15.4 µM] | 19% | x | 13 | -1 | 2%
CC(C)Cc1ccc(C2=CSC3=NCCN23)cc1 | x | -2%[15.4 µM] | x | x | 8 | x | 12%
Cc1ccc2nc3c(cc(C#N)c(=N)n3CC3CCCO3)c(=O)n2c1 (stereo not given) | -0.7 | x | 8% | x | x | -3 | x
Cc1ccc(-c2nc3c(c(=O)[nH]c(=O)n3Cc3ccccc3)n2Cc2ccccc2)o1 | 19 | -4%[15.4 µM] | 13µM* | -2.0% | 0 | -1 | u
COc1ccc(CNC(=O)CC2Sc3ccccc3NC2=O)cc1 (stereo not given) | -0.4 | -31%[inhibitor] | 4% | 0.7% | -10 | -13 | 2%
O=C(Nc1ccc(Cc2ccncc2)cc1)c1cc([N+](=O)[O-])ccc1N1CCOCC1 | -0.2 | 21% | 9% | 1.1% | 40 | -13 | -13%
CC(=O)N1N=C(c2ccc3nccnc3c2)CC1c1ccccc1 (stereo not given) | 5.0 | 16% | 19% | 0.5% | 21 | 25 | 2%
CC(C)=C(NC(=O)c1ccccc1)C(=O)Nc1ccc(C(=O)O)cc1 | 4.4 | -34%[inhibitor] | 14% | -2.4% | 26 | -1 | 11%
Nc1nnc(SCC(=O)Nc2ccc(S(=O)(=O)N3CCOCC3)cc2)s1 | 5.1 | 12% | 12% | 4.1% | -9 | 6 | 5%
C=CCN1C(=O)[C@@H]2Cc3c([nH]c4ccccc34)C(c3cc(OC)c(OC)c(OC)c3)N2C1=S (stereo not given in full) | u | -25% | 5% | -3.3% | 24 | -3 | 2%
COc1ccc(Cl)cc1C(=O)OCC(=O)c1c(N)n(C)c(=O)n(C)c1=O | x | 6% | x | -5.7% | 2 | x | x

In another format: entries from further up
> Fc1nc(N2CCCC2)c(F)c(Oc2ccccc2Oc2c(F)c(F)nc(N3CCCC3)c2F)c1F
  Menin MLL FP FL: 0.5
  gsp agonist: -8%
  Sfp inh: 4%
  ClpP mod: -23%
  TRPML1 inh: 2
  TRPV1 PAM: -2
  gsp antagonist: 7%

> COc1ccc(CC(=O)N2CCN=C2SC)cc1OC
  Menin MLL FP FL: 2.7
  gsp agonist: -11%[15.4 µM]
  Sfp inh: 16%
  ClpP mod: -0.3%
  TRPML1 inh: -1
  TRPV1 PAM: -5
  gsp antagonist: 11%

> CS/C(N)=N/N=C/c1cc(C)ccc1O
  Menin MLL FP FL: 1.4
  gsp agonist: u
  Sfp inh: -13%
  ClpP mod: -1.0%
  TRPML1 inh: x
  TRPV1 PAM: -2
  gsp antagonist: 12%

> CCOc1ccc(NCc2cccn2-c2nnc(N3CCC(C(=O)NCCCN4CC(C)CC(C)C4)CC3)s2)cc1 (stereo not given)
  Menin MLL FP FL: 1.8
  gsp agonist: -5%[15.4 µM]
  Sfp inh: 10%
  ClpP mod: x
  TRPML1 inh: 16
  TRPV1 PAM: -4
  gsp antagonist: -9%
